Source: PubChem BioAssay
Yeast UUG start – alters start codon recognition fidelity in yeast | S. cerevisiae UUG-firefly luciferase reporter, luminescence/redox ratio | activity score, % at 18.7 µM | actives 0.13% (n = 350,000) | AID 602363;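 active = replicate mean at a twofold rise or more, about +100% in these data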;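 also: firefly luciferase made from a UUG start codon reports start codon fidelity; reporter light over untreated wells divided by growth signal over untreated wells; some hits fall short of that in this replicate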
Starred values were filed as active, the others as inactive. A portion of the library. The share of hits here may be higher or lower than overall.

Molecule,Yeast UUG start
COc1ccc(NC(=O)Nc2ccc3c(c2)[C@H]2C[C@@H](CC(=O)N(C)C)O[C@@H](CO)[C@H]2O3)cc1,-3
O=C(C[C@H]1C[C@H]2c3cc(NC(=O)Nc4ccc(F)cc4)ccc3O[C@H]2[C@@H](CO)O1)NCC(F)(F)F,2
CCOC(=O)N(C)C[C@H]1OCc2ccccc2-c2c(n(C)c3ccccc23)C(=O)N([C@H](C)CO)C[C@H]1C,35
CO[C@H]1CN(C)C(=O)c2ccc(NC(=O)Nc3ccccc3)cc2OC[C@H](C)N(C(=O)CN(C)C)C[C@H]1C,-16
CO[C@@H]1CN(C)C(=O)c2cc(NC(=O)Nc3ccccc3)ccc2OC[C@H](C)N(CC2CC2)C[C@H]1C,8
COc1ccccc1NC(=O)N1C[C@H](O)COC[C@@H]2O[C@H](CC(=O)NCCc3ccccc3)CC[C@H]21,15
CO[C@H]1CN(C)C(=O)c2ccc(NC(=O)c3ccccc3)cc2OC[C@H](C)NC[C@H]1C,3
Cc1noc(C)c1NC(=O)N(C)C[C@H]1Oc2ccc(NC(=O)c3ccncc3)cc2C(=O)N([C@@H](C)CO)C[C@@H]1C,-15
O=C(C[C@@H]1CC[C@@H]2[C@H](COC[C@H](O)CN2C(=O)Nc2ccc(F)cc2)O1)NC1Cc2ccccc2C1,17
COc1ccc(S(=O)(=O)Nc2cccc3c2O[C@H](CN(C)S(=O)(=O)c2cn(C)cn2)[C@H](C)CN([C@H](C)CO)C3=O)cc1,4
C[C@H]1CN([C@@H](C)CO)C(=O)c2cccc(NS(=O)(=O)c3cccs3)c2O[C@@H]1CN(C)C(=O)NC1CCCCC1,38
C[C@H]1CN([C@@H](C)CO)C(=O)Cc2cc(NC(=O)Nc3ccc(F)cc3)ccc2O[C@H]1CN(C)S(C)(=O)=O,-14
CN(C)CC(=O)N1CCCCN2[C@H](CO)[C@@H](c3ccc(-c4cccnc4)cc3)[C@@H]2C1,-3
O=C(NC[C@@H]1N[C@@H](CO)[C@H]1c1ccc(C2=CCCCC2)cc1)c1cccc(F)c1,-7
O=C(C[C@@H]1CC[C@@H]2[C@H](COC[C@H](O)CN2S(=O)(=O)c2ccc(F)cc2)O1)N[C@@H]1CCN(Cc2ccccc2)C1,13
O=C(C[C@@H]1CC[C@@H]2NC[C@H](O)COC[C@H]2O1)NCCc1ccccc1,1
C[C@@H](O)C#Cc1ccc([C@H]2[C@H]3CN(CC4CC4)CCCCN3[C@H]2CO)cc1,28
O=C(C[C@H]1C[C@@H]2c3cc(NC(=O)CC4CC4)ccc3O[C@@H]2[C@H](CO)O1)NCc1cccc(F)c1,-7
C[C@@H]1CN([C@H](C)CO)C(=O)c2cc(NC(=O)Cc3ccccc3)ccc2O[C@H]1CN(C)C,-8
O=C([C@@H]1[C@@H](CO)[C@@H]2Cn3c(ccc(-c4ccccc4F)c3=O)[C@H]1N2C(=O)C1CCC1)N1CCOCC1,3
C[C@@H]1CN([C@H](C)CO)C(=O)Cc2cc(NC(=O)Nc3ccc(F)cc3)ccc2O[C@H]1CN(C)Cc1ccncc1,-12
O=C(Nc1ccccc1Cl)N1C[C@@H]2[C@H](c3ccccc31)[C@@H](CO)N2Cc1ccccc1,-13
C[C@H](CO)N1C[C@H](C)[C@@H](CN(C)S(=O)(=O)c2cccs2)Oc2ccc(NC(=O)Nc3ccc(F)cc3)cc2C1=O,1
CCCNC(=O)[C@H]1[C@H](CO)[C@H]2Cn3c(ccc(/C=C/c4ccccc4)c3=O)[C@H]2N1CCC,9
CNC(=O)C[C@H]1CC[C@@H]2[C@H](COC[C@H](O)CN2C(=O)c2ccccn2)O1,2
C[C@@H]1CN([C@H](C)CO)C(=O)c2cccc(NC(=O)C3CCCCC3)c2O[C@@H]1CN(C)C(=O)Nc1ccc(C(F)(F)F)cc1,8
O=C(C[C@@H]1CC[C@@H]2[C@H](COC[C@H](O)CN2Cc2cc(F)ccc2F)O1)NCc1ccccc1,-2
COc1ccc(NC(=O)N2CC[C@@H]3[C@H]2c2cc(Br)ccc2N(C)[C@H]3CO)cc1,4
O=C(C1CC1)N1C[C@@H]2[C@H](c3ccccc31)[C@H](CO)N2Cc1ccccc1Cl,-13
CO[C@@H]1CN(C)C(=O)c2ccc(NC(=O)C3CCCC3)cc2OC[C@@H](C)N(Cc2nccs2)C[C@H]1C,-1
COc1ccc(C#Cc2ccc3c(c2)[C@H]2[C@H](CCN2S(=O)(=O)C2=NC(C)C=N2)[C@@H](CO)N3C)cc1 (stereo partly drawn),-4
C[C@H](CO)N1C[C@H](C)[C@H](CN(C)C(=O)Nc2ccc(F)cc2)Oc2ccc(NC(=O)c3ccncc3)cc2C1=O,-4
COc1ccc(S(=O)(=O)Nc2ccc3c(c2)CC(=O)N([C@@H](C)CO)C[C@H](C)[C@@H](CN(C)Cc2ccncc2)O3)cc1,-3
O=S(=O)(c1ccccc1)N1C[C@@H]2[C@H](c3ccccc31)[C@H](CO)N2Cc1ccccn1,16
C[C@H](CO)N1C[C@H](C)[C@@H](CN(C)C(=O)Nc2cccc3ccccc23)Oc2c(NS(=O)(=O)c3ccc(F)cc3)cccc2C1=O,0
C[C@H]1CN([C@@H](C)CO)C(=O)c2cccc(NC(=O)c3ccncc3)c2O[C@H]1CN(C)S(C)(=O)=O,-10
Cc1ccc(S(=O)(=O)N(C)C[C@@H]2Oc3ccc(NC(=O)NC(C)C)cc3CC(=O)N([C@H](C)CO)C[C@H]2C)cc1,34
Cc1ccc(S(=O)(=O)N2CC[C@@H]3[C@H]2c2cc(C4=CCCCC4)ccc2N(C)[C@H]3CO)cc1,-1
C[C@H](CO)N1C[C@H](C)[C@@H](CN(C)CC2CCCCC2)Oc2c(NC(=O)Nc3cccc4ccccc34)cccc2C1=O,1
O=C(C1CCC1)N1C[C@H]2[C@@H](c3ccccc31)[C@@H](CO)N2C(=O)c1ccccc1F,115*
CC(C)NC(=O)N1CC[C@@H]2[C@H]1c1cc(C#Cc3cccnc3)ccc1N(C)[C@@H]2CO,0
CCCNC(=O)C[C@H]1CC[C@H]2[C@@H](COc3ccc(NC(=O)Nc4c(C)noc4C)cc3C(=O)N2C)O1,24
CN(C)CC#Cc1ccc([C@@H]2[C@@H](CO)N3CCCCN(C(=O)Nc4cc(F)ccc4F)C[C@H]23)cc1,-8
OC[C@H]1[C@H](c2ccc(-c3ccccc3F)cc2)[C@@H]2CN(Cc3cncnc3)CCCCN12,1
CCN(C[C@H]1N[C@@H](CO)[C@@H]1c1ccc(-c2ccc(F)cc2)cc1)C(=O)COC,5
CC(=O)N1CC[C@@H]2[C@@H](CO)Nc3ccc(C#Cc4cccnc4)cc3[C@@H]21,6
C[C@H]1CN([C@@H](C)CO)C(=O)c2cc(NC(=O)NC3CCCCC3)ccc2O[C@@H]1CN(C)S(=O)(=O)c1ccc(Cl)cc1,1
CN(C)CC#Cc1ccc([C@H]2[C@@H](CO)N3CCCCN(C(=O)C4CC4)C[C@H]23)cc1,8
O=C(C[C@@H]1CC[C@H]2[C@@H](COC[C@@H](O)CN2S(=O)(=O)c2ccc(F)cc2)O1)NCCN1CCCCC1,-6
C[C@H](CO)N1C[C@H](C)[C@@H](CN(C)C(=O)NC2CCCC2)OCc2cn(nn2)CCCC1=O,14

In a second layout: entries from further up
Yeast UUG start | structure
0 | C[C@H](CO)N1C[C@H](C)[C@@H](CN(C)C(=O)Nc2cccc3ccccc23)Oc2c(NS(=O)(=O)c3ccc(F)cc3)cccc2C1=O
-10 | C[C@H]1CN([C@@H](C)CO)C(=O)c2cccc(NC(=O)c3ccncc3)c2O[C@H]1CN(C)S(C)(=O)=O
34 | Cc1ccc(S(=O)(=O)N(C)C[C@@H]2Oc3ccc(NC(=O)NC(C)C)cc3CC(=O)N([C@H](C)CO)C[C@H]2C)cc1
-1 | Cc1ccc(S(=O)(=O)N2CC[C@@H]3[C@H]2c2cc(C4=CCCCC4)ccc2N(C)[C@H]3CO)cc1
1 | C[C@H](CO)N1C[C@H](C)[C@@H](CN(C)CC2CCCCC2)Oc2c(NC(=O)Nc3cccc4ccccc34)cccc2C1=O
115* | O=C(C1CCC1)N1C[C@H]2[C@@H](c3ccccc31)[C@@H](CO)N2C(=O)c1ccccc1F
0 | CC(C)NC(=O)N1CC[C@@H]2[C@H]1c1cc(C#Cc3cccnc3)ccc1N(C)[C@@H]2CO

Continuation:
> Cc1cccc(S(=O)(=O)N2CC[C@@H]3[C@H]2c2cc(C#Cc4ccccc4F)ccc2N[C@@H]3CO)c1
  Yeast UUG start: -6

> O=C(Nc1ccccc1)N1CCCCN2[C@H](C1)[C@@H](c1ccc(Br)cc1)[C@@H]2CO
  Yeast UUG start: -11

> CC(=O)Nc1ccc2c(c1)C(=O)N(C)[C@H]1CC[C@H](CC(=O)NCc3ccc(Cl)cc3)O[C@@H]1CO2
  Yeast UUG start: 9

> COCC#Cc1ccc([C@H]2[C@H](CO)N3CCCCN(S(=O)(=O)c4ccc(OC)cc4)C[C@@H]23)cc1
  Yeast UUG start: 9

> C[C@H](CO)N1C[C@H](C)[C@H](CN(C)C(=O)Nc2ccccc2)Oc2c(NC(=O)C3CCOCC3)cccc2C1=O
  Yeast UUG start: -3

> CCNC(=O)C[C@H]1CC[C@@H]2[C@H](COC[C@H](O)CN2C(=O)CC)O1
  Yeast UUG start: -13

> C[C@H]1CN([C@@H](C)CO)C(=O)c2cccc(NS(=O)(=O)c3ccc(F)cc3)c2O[C@H]1CN(C)S(=O)(=O)c1cccs1
  Yeast UUG start: 19

> C[C@@H]1CN([C@H](C)CO)C(=O)c2cc(NC(=O)CCC(F)(F)F)ccc2O[C@@H]1CN(C)Cc1ccc(C(=O)O)cc1
  Yeast UUG start: -9

> CCC(=O)N1CC[C@@H]2[C@@H](CO)Nc3ccc(-c4ccc(OC)cc4)cc3[C@@H]21
  Yeast UUG start: -10

> O=C(C[C@@H]1CC[C@H]2[C@@H](COC[C@@H](O)CN2CC2CCCCC2)O1)NCC1CC1
  Yeast UUG start: 14

> CO[C@@H]1CN(C)C(=O)c2ccc(NC(C)=O)cc2OC[C@H](C)N(CC2CCCCC2)C[C@H]1C
  Yeast UUG start: -6

> CN1C(=O)c2cc(NC(=O)c3cnccn3)ccc2OC[C@H]2O[C@H](CC(=O)NC3CCC3)CC[C@@H]21
  Yeast UUG start: 5

> C[C@H]1CN([C@@H](C)CO)C(=O)c2cc(NC(=O)Nc3cccc4ccccc34)ccc2O[C@H]1CN(C)S(=O)(=O)c1ccc(Cl)cc1
  Yeast UUG start: 0

> COCC(=O)Nc1ccc2c(c1)OC[C@@H](C)N(C(=O)c1ccccc1F)C[C@H](C)[C@@H](OC)CN(C)C2=O
  Yeast UUG start: 13

> O=C(Nc1cccc(F)c1)N1C[C@H]2[C@@H](c3ccccc31)[C@H](CO)N2C(=O)C1CCOCC1
  Yeast UUG start: 9

> CNC[C@H]1Oc2c(NC(=O)Nc3ccccc3)cccc2C(=O)N([C@H](C)CO)C[C@@H]1C
  Yeast UUG start: 0

> C[C@H](CO)N1C[C@H](C)[C@H](CN(C)Cc2ccc(Oc3ccccc3)cc2)Oc2c(NS(C)(=O)=O)cccc2C1=O
  Yeast UUG start: -8

> CNC(=O)C[C@H]1CC[C@@H]2[C@H](COc3ccc(NC(=O)Nc4cccc(C)c4)cc3C(=O)N2C)O1
  Yeast UUG start: 2

> O=C(C[C@@H]1C[C@H]2c3cc(NC(=O)Nc4ccc(F)cc4)ccc3O[C@H]2[C@@H](CO)O1)NCC1CC1
  Yeast UUG start: -8

> CC(C)CC#Cc1ccc([C@H]2[C@@H](CO)N3CCCCN(S(=O)(=O)c4ccc(F)cc4)C[C@@H]23)cc1
  Yeast UUG start: 32

> O=S(=O)(c1ccccc1)N1CCCCN2[C@H](CO)[C@H](c3ccc(C#CC4CCCC4)cc3)[C@H]2C1
  Yeast UUG start: 18

> Cc1cccc(-c2ccc([C@@H]3[C@H]4CN(S(=O)(=O)c5cccc(C)c5)CCCCN4[C@H]3CO)cc2)c1
  Yeast UUG start: -6

> CN(C)C(=O)c1ccc(-c2ccc([C@@H]3[C@H]4CN(CCC(F)(F)F)CCCCN4[C@H]3CO)cc2)cc1
  Yeast UUG start: -10

> CCC(=O)N1[C@@H]2CN(C(=O)Nc3ccc(Cl)cc3)c3ccccc3[C@@H]2[C@@H]1CO
  Yeast UUG start: -10

> C[C@@H]1CN([C@H](C)CO)C(=O)Cc2cc(NC(=O)C3CCCCC3)ccc2O[C@H]1CN(C)C(=O)Nc1ccc2c(c1)OCO2
  Yeast UUG start: 4

> CC(C)NC(=O)Nc1cccc2c1O[C@H](CN(C)Cc1ccc(C(=O)O)cc1)[C@H](C)CN([C@@H](C)CO)C2=O
  Yeast UUG start: -3

> C/C=C/c1ccc([C@H]2[C@H]3CN(S(=O)(=O)c4ccccc4)CCCCN3[C@H]2CO)cc1
  Yeast UUG start: 5

> COc1ccc(C#Cc2ccc3c(c2)[C@@H]2[C@@H](CCN2C(=O)c2ccccn2)[C@@H](CO)N3)cc1
  Yeast UUG start: -12

> COc1ccc(C#Cc2ccc3c(c2)[C@H]2[C@H](CCN2C(=O)c2ccccc2F)[C@H](CO)N3)cc1
  Yeast UUG start: -7

> O=C(NC[C@H]1N[C@H](CO)[C@@H]1c1ccc(C2=CCCCC2)cc1)c1ccc(F)cc1
  Yeast UUG start: -3

> CN1c2ccc(-c3cccc(F)c3)cc2[C@H]2[C@H](CCN2C(=O)Cc2ccccc2)[C@H]1CO
  Yeast UUG start: 10

> C[C@H]1CN([C@@H](C)CO)C(=O)c2cc(NC(=O)NC3CCCCC3)ccc2O[C@H]1CN(C)S(=O)(=O)c1ccc(F)cc1
  Yeast UUG start: -6

> CC(C)NC(=O)N1C[C@@H]2[C@H](c3ccccc31)[C@H](CO)N2C(=O)c1ccccc1F
  Yeast UUG start: 1

> C[C@H]1CN([C@@H](C)CO)C(=O)c2cc(NS(=O)(=O)c3ccccc3)ccc2O[C@@H]1CN(C)Cc1ccc(C(F)(F)F)cc1
  Yeast UUG start: 9

> CN1CCCCN2[C@@H](CO)[C@@H](c3ccc(-c4ccccc4)cc3)[C@@H]2C1
  Yeast UUG start: -13

> COc1ccc(CN(C)C[C@@H]2Oc3ccc(N(C)C)cc3CC(=O)N([C@@H](C)CO)C[C@@H]2C)cc1
  Yeast UUG start: -12

> CO[C@@H]1CN(C)C(=O)c2cc(NC(=O)Nc3ccccc3)ccc2OC[C@H](C)N(C(=O)Nc2c(C)noc2C)C[C@@H]1C
  Yeast UUG start: 29
